Compound activity (PubChem)
RE007 growth inh: less growth of the S. pombe RE007 Vpr strain | Potency, µM (series often up to 92.2 µM), without a hit: top-dose activity change, negative = less growth | S. pombe RE007 Vpr strain, BacTiter-Glo ATP luminescence, 24 h; control for the full effect not named in the record | AID 651644 | 0.21% of 360,000 active; active = well fitted falling curve with a large enough effect; inconclusive = small, poorly fitted or top-dose-only effect; inactive = no such curve, though single readings can be large or run the other way;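 note: nearly all actives have a fitted effect of over 50% in size; the assay follows cell death caused by Vpr and the record does not say whether a fall means rescue or toxicity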
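Fission yeast RE007 carrying one integrated HIV-1 vpr copy, seeded at OD 0.01 in PMG+AL medium with 23 nL pinned compound. Grown 24 h at 30 degrees; viability read by BacTiter-Glo luminescence after 5 min.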
StopGo reporter: lowers the luciferase signal of an FMDV 2A StopGo reporter; human cells with a luciferase reporter of 2A StopGo recoding; control for the full effect not named in the record; Potency, µM (titrated, usually from 57.9 µM), inactives show at the highest dose signal change, negative = less light; 1.2% of 410,000 active; active = well fitted falling curve with a large enough effect; inconclusive = small, poorly fitted or top-dose-only effect; inactive = no such curve, though single readings can be large or run the other way; tested in HEK293T cells; note: nearly all actives have a fitted effect of over 45% in size; luciferase light after 4 h
* marks the source's active call; other numbers are inactive results; ? = inconclusive; [ ] = dose if it differs, or a comment. % is set by controls: 0 for no effect and ±100 for the full control effect; potency is the fitted concentration of half-maximal effect. The list is partial; count on the stated rates, not on these rows.

smiles,RE007 growth inh,StopGo reporter
Cc1cc(C)c2c(=O)n3c(nc2c1)C(Cc1ccc(O)cc1)NC(=O)c1cccnc1-3 (stereo not given),-5%,0%
O=Nc1c(O)c2ccccc2c2ccccc12,45µM*,11µM*
COC(=O)[C@]12CCCCC=C1N(Cc1ccc(Cl)cc1Cl)C(=O)[C@H](CC(=O)N1CCN(C(=O)c3ccco3)CC1)C2,13%,-28%
Cc1ccc(C2=NOC(C)(c3nnc(-c4ccccc4)o3)C2)cc1 (stereo not given),9%,26%
CC(C)(C)c1cc(CNC(=O)C2CCC(=O)N(Cc3ccccc3F)C2)[nH]n1 (stereo not given),14%,-5%
O=C(C(=O)N1CCC(c2ccccc2)CC1)c1cccc([N+](=O)[O-])c1,-8%,7%
Cc1ccc([N+](=O)[O-])c(NC(=O)COC(=O)CCNS(=O)(=O)c2cccs2)c1C,0%,-10%
O=C(O)C1c2ccccc2Cc2ccccc21,-2%,-20%
NNC(=O)c1ccccc1CO,-1%,-14%
O=C(O)C[C@H]1c2ccccc2S(=O)(=O)N1c1ccccc1,26%,-15%
CCOC(=O)[C@]12Cc3cc(OC)ccc3[C@H]1N(C)C(=O)c1cc(OC)ccc12,9%,11µM*
COc1ccc(C(=O)OCC(=O)N2c3ccccc3CC2C)cc1S(=O)(=O)N1CCOCC1 (stereo not given),5%,-16%
CC1=C(C(=O)N2CCOCC2)CC(CC(=O)NCCN2CCOCC2)C(=O)N1Cc1ccc(F)cc1 (stereo not given),10%,-24%
N#CCCC(C#N)(c1cccnc1)N1CCOCC1 (stereo not given),10%,-11%
CN1CCn2cnc(C(=O)NCC(=O)OC(C)(C)C)c2C1=O,10%,0%
COCCNC(=S)N(C)[C@H]1C[C@H]2c3cc(N4CCN(C)CC4)ccc3CCN2C(=O)[C@H]1[C@H](C)O,-7%,-20%
O=C(NCc1ccncc1)c1ccc2nc([C@@H]3O[C@H](CO)[C@H](O)[C@H](O)[C@H]3O)[nH]c2c1,13%,-7%
COc1ccc([C@H]2CC(=O)C[C@@H](CCn3cc(-c4ccncc4)nn3)O2)cc1,-8%,-19%
CCOC(=O)c1csc(CCNC(=O)c2ccccc2)n1,3%,12%
CCCCN(C=O)c1c(CC)nc2c(OCCOc3ccccc3)cccn12,-23%[18.4 µM],-23%
COc1ccc(C(=O)c2[nH]c(N)c(C(=O)NCCc3c[nH]c4ccccc34)c2-c2ccc(C(F)(F)F)cc2)cc1,-6%,-21%
CCOC(=O)C1(C)CCCN(C(=O)c2ccc3c(c2)CCO3)C1 (stereo not given),10%,4%
N#Cc1ccc(C(=O)N2CCCCC2c2cc(C(=O)Nc3ccccc3Cl)no2)cc1 (stereo not given),-10%,-20%
Cc1cn([C@H]2C[C@H](O)[C@@H](CCC(=O)NCc3ccccc3)O2)c(=O)[nH]c1=O,-2%,-14%
COc1c(Cl)cc(C(=O)Nc2cccnc2)cc1Cl,-12%,-8%

New compounds follow
smiles,RE007 growth inh,StopGo reporter
CCN(CC(=O)NCc1ccc(F)cc1)C(=O)c1cccc(S(=O)(=O)N(C)c2ccc(OC)cc2)c1,-1%,0%
COc1ccc(CCn2nnc3ccccc3c2=O)cc1OC,13%,0%
CN(CC(=O)Nc1ccc(Cl)cc1)CC(=O)Nc1sc2c(c1C(N)=O)CCC2,5%,?
Cc1ccc(C(=O)Nc2ccc(NC(=O)c3ccccc3Cl)c(C)c2)cc1,-9%,28%
OC[C@@H]1CN(Cc2cccc(C(F)(F)F)c2)C[C@H](n2cnc3c(NC4CC4)ncnc32)O1,-7%,-19%
CSc1nc(N)n2nc(C)cc2n1,13%[18.4 µM],-5%
CN1CCn2cnc(C(=O)Nc3ccc(Cl)cc3)c2C1=O,4%,-15%
CCOC(=O)C1CCCN(C(=O)c2ccccc2)CC1 (stereo not given),0%,-11%
COc1ccc(NC(=O)C2(C)Cc3c(-c4cccc(C(N)=O)c4)ccnc3O2)cc1OC (stereo not given),22%,-24%
CSc1ccc(-c2cc3c(c4c2ccn4C)C2CCC3C2)cc1 (stereo not given),-16%,-22%
C(=C\c1ccccc1)/CN1CCN(C(c2ccccc2)c2nnnn2C2CCCCC2)CC1 (stereo not given),-9%,-1%
O=C(COc1cc(F)ccc1[N+](=O)[O-])NCC1CCCO1 (stereo not given),9%,-10%
CC1(C(=O)NS(=O)(=O)c2cccs2)CCN1C(=O)CC1CCCCC1 (stereo not given),5%,-22%
CN(Cc1ccccc1)C(=O)c1cccc(NC(=O)Cc2ccc(NC(=O)C3CCCN(C(=O)C4CCC4)C3)cc2)c1 (stereo not given),-17%,-14%
C[C@@H]1CN([C@@H](C)CO)C(=O)CCCn2nncc2CO[C@@H]1CN(C)C(=O)Oc1ccccc1,5%,-1%
O=C(OCc1cn([C@@H]2CN(Cc3cccs3)[C@@H](c3ccc(Cl)cc3)C[C@H]2O)nn1)c1ccccc1,6%,-7%
Cc1c(C(=O)NCc2cccc([N+](=O)[O-])c2)sc(=O)n1Cc1cccc(F)c1,4%[18.4 µM],-8%
C[C@@H]1CN([C@@H](C)CO)C(=O)CCCn2nncc2CO[C@H]1CN(C)Cc1ccc2c(c1)OCCO2,-23%,35%[activator]
O=C(c1ccc2c(c1)OCO2)c1ccc[nH]1,7%,9%
CCCC1(CC(C)CC)C(=O)NC(=O)NC1=O (stereo not given),17%,-9%
COc1ccc(S(=O)(=O)NC(=O)C2(C)CCN2C(=O)Cc2ccc(-c3ccccc3)cc2)cc1 (stereo not given),2%,-6%
COCCNC(=O)C1(C)CCCN(C(=O)c2ccc(-c3ccccc3)cc2)C1 (stereo not given),-15%[18.4 µM],15%
Cc1ccc(CC#N)c(-c2c(CC#N)ccc(C)c2C)c1C,-23%,?
CCOC(=O)C1(C)CCCN1C(=O)c1ccc(OC)cc1 (stereo not given),0%,0%
Nc1cc(N)cc(Cc2ccccc2)c1,-1%,-4%

Look-ups from the results shown:
Result of CCN(CC(=O)NCc1ccc(F)cc1)C(=O)c1cccc(S(=O)(=O)N(C)c2ccc(OC)cc2)c1 under StopGo reporter: 0%
Result of O=C(c1ccc2c(c1)OCO2)c1ccc[nH]1 under RE007 growth inh: 7%
Result of CN(CC(=O)Nc1ccc(Cl)cc1)CC(=O)Nc1sc2c(c1C(N)=O)CCC2 under RE007 growth inh: 5%
Result of CCCC1(CC(C)CC)C(=O)NC(=O)NC1=O (stereo not given) under RE007 growth inh: 17%
Result of CC1(C(=O)NS(=O)(=O)c2cccs2)CCN1C(=O)CC1CCCCC1 (stereo not given) under StopGo reporter: -22%

Other records follow:
smiles,RE007 growth inh,StopGo reporter
COc1ccccc1-c1cnc(C(O)c2ccc(CN3CCCCC3)cc2)[nH]1 (stereo not given),-17%,-15%
C(=Cc1cnc2ccccc2n1)c1ccc2c(c1)OCO2,-2%,1.8µM*
O=C(Nc1ccc(F)cc1)C(CCc1ccccc1)N1CCN(Cc2c(F)cccc2Cl)CC1 (stereo not given),-21%,-12%
O=C(C[C@@H]1CC[C@@H]2[C@H](COC[C@H](O)CN2S(=O)(=O)c2ccccc2)O1)Nc1ccccc1,-1%,-10%
CCCCC1CC2=C(C(=O)OC(C)(C)O2)C(c2cccc3ccccc23)O1 (stereo not given),-1%,-10%
O=C(NCc1ccccc1)c1cccc2c(-c3ccc(F)c(F)c3)coc12,-5%,-11%
CC1(C(=O)NS(=O)(=O)c2ccccc2)CCN1C(=O)c1ccc(C2CCCCC2)cc1 (stereo not given),17%,-6%
CC(=O)N1CCN(Cc2cc(=O)oc3cc(C)cc(C)c23)CC1,5%,-2%
CCN(CC)CCN(Cc1cc2cc3c(cc2[nH]c1=O)OCCO3)C(=S)NCCOC,-11%,4%
CC(C)(O)C#Cc1ccc(N2C(c3ccsc3)=Cc3ccc(F)cc3C2c2c[nH]c3ccc(C#N)cc23)cc1 (stereo not given),5%,-3%
C[C@@H]1CN([C@@H](C)CO)C(=O)CCCn2nncc2CO[C@H]1CN(C)S(=O)(=O)c1ccc2ccccc2c1,32%,0%
COCCCNc1c2c(nc3ccccc13)CCC2,-9%,-26%
COc1ccc(NC(=O)C2CC(=O)N(c3ccc(C)cc3)C2)cc1S(=O)(=O)N1CCCCC1 (stereo not given),0%,-6%
C[C@H](CO)N1C[C@H](C)[C@@H](CN(C)C(=O)c2ccc3c(c2)OCO3)Oc2cc(/C=C/c3ccccc3)ccc2S1(=O)=O,6%,33%[activator]
OC[C@@H]1CN(Cc2ccc(Cl)cc2)C[C@H](n2cnc3c(NCc4ccncc4)ncnc32)O1,-12%,-21%
CCOC(=O)[C@]12CCCC=C1N(Cc1ccc(Cl)cc1Cl)C(=O)[C@H](CC(=O)N1CCCC1)C2,-11%,-23%
CC(=O)Nc1cccc(-c2ccnc3c2CC(C)(C(=O)NCc2ccco2)O3)c1 (stereo not given),8%,-15%
CCN(CC(=O)Nc1ccccc1C(F)(F)F)C(=O)CN1C(=O)NC(C)(c2ccc3ccccc3c2)C1=O (stereo not given),-6%,-17%
CC(C)[C@@H]1Cc2[nH][nH]c(=O)c2[C@H](C(C)C)O1,1%,-15%
CC1CCC(NC(=O)c2ccc3c(c2)S(=O)(=O)c2ccccc2C3=O)CC1 (stereo not given),5%,10%
C=CC1=CCN(S(=O)(=O)C(C)(C)C)[C@H]1CCO,3%,-24%
O=C(CNC(=O)c1cc(S(=O)(=O)N2CCOCC2)ccc1N1CCCC1)Nc1ccc(F)c(F)c1,3%,-20%
CC1(C)CC(NC(=O)c2ccccc2NS(=O)(=O)c2ccc(Br)cc2)CC(C)(C)N1,-16%,-12%
NC(=S)NN=Cc1c[nH]c2nccnc12,-3%,10%
COC(=O)[C@]12CCCCC=C1N(Cc1ccccc1)C(=O)[C@H](CC(=O)NCc1cccs1)C2,35%,0%

The list continues.
smiles,RE007 growth inh,StopGo reporter
CC1(C)OC(=O)C2=C(C[C@@H](CCOCc3ccccc3)O[C@@H]2c2ccc(F)cc2)O1,-9%,-30%
CCCCCC(=O)N1C[C@H](n2cc(COC(=O)c3ccccc3)nn2)[C@@H](O)C[C@@H]1c1ccccc1,6%,-2%
COc1cccc(-c2cnc3c(NC(C)=O)cc(-c4cc(F)ccc4OC)cn23)c1,8%[18.4 µM],-15%
COc1cc2c(cc1OC)C(c1c(Cl)cccc1Cl)=NCC2,-10%[18.4 µM],?
CC1(C(=O)NS(=O)(=O)C2CC2)CCCN(C(=O)c2cccc(C(F)(F)F)c2)C1 (stereo not given),-16%[18.4 µM],-20%
CC1=C(C(=O)N2CCOCC2)CC(CC(=O)NCc2cccc3ccccc23)C(=O)N1Cc1ccc(F)cc1 (stereo not given),2%,?
O=NN(CC(=O)NN=CC=Cc1ccccc1)CC(=O)NN=CC=Cc1ccccc1,7%,15%
Cc1ccc(S(=O)(=O)N2CCC(C(=O)OCC(=O)N3C(C)CCCC3C)CC2)cc1C (stereo not given),20%,-24%
CCc1nc2ccc(C(=O)Nc3cccc(NS(C)(=O)=O)c3)cn2c1N(C)Cc1nccn1C,-18%[18.4 µM],-10%
COc1ccccc1CNC(=O)C1(C)CCN1C(=O)Cc1ccc(-c2ccccc2)cc1 (stereo not given),-1%,?
COc1cc(-c2cnc3c(NC(C)=O)cc(-c4ccc(N5CCN(C)CC5)cc4)cn23)cc(OC)c1OC,-10%,?
Nc1ncnc2c1ncn2[C@@H]1O[C@H](C(=O)NCC2CCN(Cc3ccccc3)CC2)[C@@H](O)[C@H]1O,-18%,-11%
COc1cccc(C(c2nnnn2-c2ccc3c(c2)OCCO3)N2CCC(n3c(=O)[nH]c4ccccc43)CC2)c1OC (stereo not given),-6%,-25%
COc1ccc(NC(=O)N(C)C[C@H]2Oc3ccc(NC(=O)Nc4ccc5c(c4)OCO5)cc3C(=O)N([C@H](C)CO)C[C@@H]2C)cc1,1%,-12%
O=C(C[C@H]1CC[C@@H](NS(=O)(=O)c2ccccc2)[C@@H](CO)O1)NCc1ccc(Cl)c(Cl)c1,-7%,-24%
O=C1NC[C@H](CCCCN2C[C@H](Cc3ccc(O)cc3)N(CC3CCCCC3)C(=O)C2=O)N(Cc2ccccc2)C1=O,-2%,-18%
O=C1c2ccccc2C(=O)N1CCC#C/C=C1\c2ccccc2C(=O)N1c1ccccc1,23%,-1%
CCOC(=O)N1CCN(C(=O)C[C@@H]2C[C@@]3(C(=O)OC)CCCCC=C3N(Cc3cccc4ccccc34)C2=O)CC1,6%,-21%
CCOC(=O)c1ccc(-c2ccc(N3C(c4ccsc4)=Cc4ccc(F)cc4C3c3c[nH]c4ccc(C#N)cc34)cc2)cc1F (stereo not given),-10%,-18%
CC(C)(C)OC(=O)N1CCC[C@@H]1C(=O)N1CCC[C@@H]1C(=O)NCc1ccccc1Cl,1%,-16%

Part of the list above, with two lines to a compound:
Every second line gives: RE007 growth inh, StopGo reporter
CCOC(=O)N1CCN(C(=O)C[C@@H]2C[C@@]3(C(=O)OC)CCCCC=C3N(Cc3cccc4ccccc34)C2=O)CC1
    6%, -21%
CCOC(=O)c1ccc(-c2ccc(N3C(c4ccsc4)=Cc4ccc(F)cc4C3c3c[nH]c4ccc(C#N)cc34)cc2)cc1F (stereo not given)
    -10%, -18%
